Screens from PubChem BioAssay.
VDR inhibitor = inhibitors of human vitamin D receptor; P11473; VDR-SRC2-3 peptide fluorescence polarization, 2 h; Potency, µM, for the others: max response, negative = inhibition, usual class: inhibitors; hit rate 0.93% among 400,000; active = well fitted inhibition curve with a large enough effect; inconclusive = small, poorly fitted or top-dose-only effect, or another doubt; inactive = no such curve, though single readings can be large or run the other way; also: series mostly up to about 120 µM
Target sequence (P11473 whole entry, looked up): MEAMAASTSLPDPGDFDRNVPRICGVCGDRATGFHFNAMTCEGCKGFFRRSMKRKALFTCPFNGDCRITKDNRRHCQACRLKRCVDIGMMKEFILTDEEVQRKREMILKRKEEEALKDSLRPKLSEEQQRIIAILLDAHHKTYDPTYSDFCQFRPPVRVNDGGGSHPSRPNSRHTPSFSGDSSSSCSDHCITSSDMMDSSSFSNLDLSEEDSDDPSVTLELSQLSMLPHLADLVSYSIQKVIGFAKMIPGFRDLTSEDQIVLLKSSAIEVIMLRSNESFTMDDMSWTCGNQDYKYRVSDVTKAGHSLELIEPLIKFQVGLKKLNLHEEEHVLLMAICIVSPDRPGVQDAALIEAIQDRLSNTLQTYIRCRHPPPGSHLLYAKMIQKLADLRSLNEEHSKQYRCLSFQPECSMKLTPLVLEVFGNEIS
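Signal is fluorescence polarization, reporting how far test compounds block the interaction of VDR with the SRC2-3 coregulator peptide after a 2 h room-temperature incubation.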
* = called active by the depositor; ? = inconclusive; & = joins results of further samples; [ ] = dose if it differs, or a comment. % is scaled to controls: 0 for no effect and ±100 for the full control effect; potency is read from the fitted curve at half-maximal effect.

Start of the data: the first six records as a preview:
No.	VDR inhibitor	canonical_smiles
1	-7%	Cc1ccc(NC(=O)CCS(=O)(=O)c2cc(Br)cc3c2N(C(=O)C2CC2)CC3)cc1
2	-20%	Cc1cnc(CNc2nc(-c3cccnc3)nc3ccccc23)cn1
3	-1%	Cc1cc(NC(=O)CN2C(=O)NC(C)(c3ccccc3Cl)C2=O)no1 (stereo not drawn)
4	5%	COc1cccc(C2Oc3ccccc3C3CC(c4cccs4)=NN32)c1 (stereo not drawn)
5	0%	COc1c(C=O)c(=O)[nH]c2c(OC)cccc12
6	-2%	COC(=O)c1ccc(OCC(O)CN2CCOCC2)cc1 (stereo not drawn)

The listing, from the first entry:
No.	VDR inhibitor	canonical_smiles
1	-7%	Cc1ccc(NC(=O)CCS(=O)(=O)c2cc(Br)cc3c2N(C(=O)C2CC2)CC3)cc1
2	-20%	Cc1cnc(CNc2nc(-c3cccnc3)nc3ccccc23)cn1
3	-1%	Cc1cc(NC(=O)CN2C(=O)NC(C)(c3ccccc3Cl)C2=O)no1 (stereo not drawn)
4	5%	COc1cccc(C2Oc3ccccc3C3CC(c4cccs4)=NN32)c1 (stereo not drawn)
5	0%	COc1c(C=O)c(=O)[nH]c2c(OC)cccc12
6	-2%	COC(=O)c1ccc(OCC(O)CN2CCOCC2)cc1 (stereo not drawn)
7	-7%	CC(=O)c1cccc(NC(=O)COc2nsnc2N2CCOCC2)c1
8	-16%	Cc1ccc(SCCC(=O)N(C)CC(=O)Nc2c(C)cccc2C)cc1
9	23%	Cc1ccc(/C=C2/C(=O)ON=C2c2ccccc2)o1
10	8%	O=P(OCC1CC1)(c1ccccc1)c1ccccc1
11	-2%	Cc1ccc(C)c(S(=O)(=O)c2nnn3c2nc(NC(C)C)c2sccc23)c1
12	11%	COc1ccccc1N1CCN(c2ncnc3c2cnn3-c2ccc(C)cc2)CC1
13	2%	Cc1cc(C)cc(NS(=O)(=O)c2c(C(=O)N3CCOCC3)c(C)n(C)c2C)c1
14	-2%	O=C(c1ccc(C(F)(F)F)cc1)N1CCC(=O)N(C(COCc2ccccc2)Cc2ccccc2)CC1 (stereo not drawn)
15	-13%	COc1cccc([C@@H]2CC=C(C(=O)O)[C@H](c3cccc(Cl)c3)N2S(=O)(=O)c2ccc(C)cc2)c1
16	13%	COc1ccc(C(=O)N/N=C\c2coc3ccc(Cl)cc3c2=O)cc1
17	0%	Cc1c(NC(=O)Nc2ccc(C(C)(C)C)cc2)c(=O)n(-c2ccccc2)n1C
18	0%	COc1cc(OC)c(OC)cc1CNC(=O)c1ccc(COc2ccccc2)cc1
19	15%	Cc1ccc(CNn2cnnc2SCc2ccc(F)cc2)cc1
20	-16%	Cc1ccc(OCCCCCN2CCOCC2)c(Cl)c1

An excerpt from above in order of number of heavy atoms, lowest first:
No.	VDR inhibitor	canonical_smiles
5	0%	COc1c(C=O)c(=O)[nH]c2c(OC)cccc12
19	15%	Cc1ccc(CNn2cnnc2SCc2ccc(F)cc2)cc1
2	-20%	Cc1cnc(CNc2nc(-c3cccnc3)nc3ccccc23)cn1
8	-16%	Cc1ccc(SCCC(=O)N(C)CC(=O)Nc2c(C)cccc2C)cc1

Other results follow.
No.	VDR inhibitor	canonical_smiles
21	-3%	CCc1ccc(N2CC(C(=O)N3CCCCCC3)CC2=O)cc1 (stereo not drawn)
22	11%	O=C(NCC1(N2CCCCC2)CCCCC1)c1ccc(S(=O)(=O)N2CCCC2)cc1
23	?	O=C(c1ccco1)N(CCC(c1ccccc1)c1ccco1)Cc1ccc(F)cc1 (stereo not drawn)
24	6%	CC1CCN(C(=O)COC(=O)c2ccc3c(c2)OCCO3)CC1
25	6%	CCc1ccc(NC(=O)CSc2nc3ccccc3c(=O)n2CCCN2CCC(C)CC2)cc1
26	-10%	Cc1ccc(CCN2CC(C(=O)NCCCN3CCN(C)CC3)CC2=O)cc1 (stereo not drawn)
27	0%	CCN(CC)c1ncnc2c1sc1nc(C)cc(C)c12
28	?	Cc1cc(C)cc(Oc2nc3c(C)cccn3c(=O)c2/C=C(\C#N)c2nc3ccccc3[nH]2)c1
29	-4%	Cn1c(N)c(C(=O)CSc2nnc(-c3cccs3)n2C2CC2)c(=O)[nH]c1=O
30	-3%	Cc1ccc(NC(=O)CN(C)C(=O)c2ccc(Br)o2)cc1
31	5%	Cc1cc(C(=O)OCC(=O)N(C)c2ccccc2)ccc1[N+](=O)[O-]
32	-6%	COc1cccc(OCCOc2ccccc2OC(C)C)c1
33	14%	O=C1CN(c2ccccc2)C(=O)N1
34	-15%	Cc1cc(N(C)C)ccc1N=Nc1ccc(N)cc1
35	-11%	COc1ccccc1N1CCN(C2CCCN(C(=O)CN3CCCCC3=O)C2)CC1 (stereo not drawn)
36	-3%	C=CCn1c(SCc2c(C)noc2C)nc2sc3c(c2c1=O)CCCCC3
37	-12%	CCOC(=O)c1oc2ccccc2c1CSc1nnnn1-c1ccccc1
38	4%	Nc1csnc1C(=O)O
39	-4%	Cc1cc(C)cc(Nc2cc(C(=O)NC3CCC(C)CC3)c3ccccc3n2)c1 (stereo not drawn)
40	-14%	COC(=O)CN1C(=O)C(C)=C(c2ccc(C)cc2)S1(=O)=O
41	2%	COc1cc(C2SCCS2)cc(Br)c1Oc1ncccc1[N+](=O)[O-]
42	2%	Cc1ccc(Cn2c(CO)cnc2SCC(=O)NCc2ccccc2Cl)cc1
43	-11%	COc1ccc(C)cc1S(=O)(=O)NC1CC1
44	-1%	CC(C)C[C@@H](CC(=O)N[C@@H](CCCN)CC(=O)N[C@@H]1CCCC[C@H]1C(=O)N[C@H](CC(=O)N[C@@H](CCC(=O)O)CC(=O)O)Cc1ccccc1)NC(=O)[C@@H]1CCCC[C@H]1N
45	8%	COCCCNC(=S)N1CCN(c2nc(-c3ccc(F)cc3)cs2)CC1
46	14%	Cc1nn(-c2ccccc2)c2nc(C3CC3)cc(C(=O)Nc3ccc(F)cc3)c12
47	3%	COc1ccc(/C=C/c2ccncc2)c2ccccc12
48	-7%	CN(C(=O)COC(=O)c1cc2ccccc2cc1O)C1CCCCC1
49	-7%	CC(=O)Nc1nc(-c2ccc([N+](=O)[O-])cc2)cs1
50	-2%	CCC(C)(C)NC(=O)CN(C(=O)c1csnn1)c1ccccc1-c1ccccc1
51	-28%	CC(=NNC(=S)N1CCCCCC1)c1ccccn1
52	22%	O=C(C1=C[C@@H](c2ccccc2)C[C@@H](OCCCCO)O1)N1CCN(Cc2ccc3c(c2)OCO3)CC1
53	7%	COc1ccc(-c2cc3nc(-c4ccccc4)cc(C(F)(F)F)n3n2)cc1
54	3%	Cc1cc(C)cc(NC(=O)CSCc2cc(=O)n3ccsc3n2)c1
55	-15%	CCOC(=O)c1ccccc1Nc1cn(C(C)=O)c2ccccc12
56	-14%	COc1cc(/C=C/C(=O)NC(C)C2CC3CCC2C3)cc(OC)c1OC (stereo not drawn)
57	-21%	COC(c1ccccc1)c1nc2ccccc2[nH]c1=O (stereo not drawn)
58	-7%	Cc1cccc(C(=O)N2CCC(=O)N([C@H](COCc3cccc(Cl)c3)Cc3ccccc3)CC2)c1
59	4%	O=C1NC(c2ccc(Br)cc2)Nc2ccccc21 (stereo not drawn)
60	-17%	COc1c(C)cc(S(=O)(=O)NCc2ccco2)c(C)c1C
61	7%	C=CCN1N=C(c2ccc(NC(=O)c3ccccc3)cc2)CSC1=O
62	-5%	CC1=CC2C(C3C=CC2(C)C(=O)C3(C)O)C(C)(O)C1=O (stereo not drawn)
63	1%	CC1CC(C)CN(C(=O)COC(=O)c2nccnc2N)C1 (stereo not drawn)
64	-5%	O=C(CCl)NC(Cc1c[nH]c2ccc(OCc3ccccc3)cc12)C(=O)O (stereo not drawn)
65	7%	CS(=O)(=O)N(CC(=O)Nc1c(F)cccc1F)c1ccc(C23CC4CC(CC(C4)C2)C3)cc1
66	-11%&-4%	C[C@]12CC[C@@H]3c4ccc(OC(=O)c5ccccc5)cc4CC[C@H]3[C@@H]1CC[C@@H]2O
67	32%[activator]	COc1ccc(CC(=O)N[C@@H](CCSC)c2nc3ccccc3[nH]2)cc1
68	0%	CCn1c(=N)c(C(=O)NC2CCCCC2)cc2c(=O)n3cc(C)ccc3nc21
69	-29%	CCC(Oc1ccccc1)C(=O)Nc1ncc([N+](=O)[O-])s1 (stereo not drawn)
70	1%	O=C(CN1C(=O)NC2(CCCCC2)C1=O)NCCc1ccccc1
71	-27%	CC1(C)CC(c2nc(-c3ccc([N+](=O)[O-])cc3)cs2)CCO1 (stereo not drawn)
72	16%	Cc1nn(Cc2ccccc2Cl)c(C)c1C(=O)Nc1nnc(C2CC2)s1
73	20%	CC(C)CN(CCNC(=O)c1cn(C)c2ccc(S(=O)(=O)N3CCCCCC3)cc2c1=O)CC(C)C
74	?	COc1ccc([N+](=O)[O-])cc1NC(=O)C(C)OC(=O)CC1CCCC1 (stereo not drawn)
75	-4%	CC(=O)Oc1ccc(OC(C)=O)c(S(=O)(=O)c2ccc(C)c(C)c2)c1
76	-1%	Cc1ccc2nc(Cl)c(/C=N/NC(=O)c3ccccc3O)cc2c1
77	?	COC(=O)c1c(-c2cccc(C)c2)csc1NC(=O)C1CCCO1 (stereo not drawn)
78	4%	CS(=O)(=O)N(CC(=O)N1CCN(C(c2ccccc2)c2ccccc2)CC1)C1CCCCC1
79	-1%	Cc1cccc(NC(=S)N2CCN(Cc3ccc4c(c3)OCO4)CC2)c1C
80	-22%	CC1CN(S(=O)(=O)c2cccc(-c3csc(-c4ccccc4)n3)c2)CC(C)O1 (stereo not drawn)

The list continues.
No.	VDR inhibitor	canonical_smiles
81	1%	CCOC(=O)N1CCN(CC(O)c2ccc3c(c2)CCN3)CC1 (stereo not drawn)
82	7%	COc1cc(C)ccc1OCCOCCOc1ccc(C)cc1[N+](=O)[O-]
83	0%	CCC(=O)N1c2ccc(S(=O)(=O)CCC(=O)N3CCn4c3nc3ccccc34)cc2CC1C (stereo not drawn)
84	49%[activator]	O=C(Nc1ccc2c(c1)CCC2)c1cc(S(=O)(=O)N2CCN(c3ccccc3)CC2)ccc1Cl
85	-1%	Nc1nonc1-c1nc2ccccc2n1CCC(=O)O
86	-14%	CCOc1ccc(-c2nc(CS(=O)(=O)CC(=O)NCc3ccc(F)cc3)c(C)o2)cc1
87	-20%	O=C(Cn1c(=O)oc2ccccc21)NC(=O)NCc1ccccc1
88	-3%	COc1ccc(O)c(C(=O)c2cnn(C(=O)c3cccc(N(C)C)c3)c2)c1
89	-16%	Cc1c(NC(=O)c2sc3c([N+](=O)[O-])cccc3c2Cl)cccc1-c1nc2ccccc2o1
90	-4%	O=C(Nc1cccnc1)Nc1ccc2c(c1)OCO2
91	-10%	Cc1oc(C(=O)Nc2ccc(O)cc2)cc1COc1ccccc1
92	-4%	CCOc1cccc(NC(=O)C2CCCN(S(=O)(=O)c3ccc(OC)cc3)C2)c1 (stereo not drawn)
93	-7%	O=C(CCC(=O)NNC(=O)COc1ccc(Br)cc1)NCc1ccccc1
94	-13%	O=C(CCCCCN1C(=O)c2ccccc2C1=O)Oc1ccc2c3c(c(=O)oc2c1)CCC3
95	-14%	O=C(C1CCN(S(=O)(=O)c2cccc3nsnc23)CC1)N1CC=C(c2ccccc2)CC1
96	-2%	COc1ccc(S(=O)(=O)NC(CCSC)C(=O)NC2CCCCC2)cc1 (stereo not drawn)
97	5%	CCn1c(-c2ccccc2Cl)nn(CC(=O)NCCc2ccccc2)c1=S
98	6%	CCOc1cc(CNc2ncn[nH]2)ccc1OCC(=O)NC(C)(C)C
99	9%	NCCCC(N)CC(=O)NCC1NC(=O)C(CO)NC(=O)C(N)CNC(=O)C(C2CCN=C(N)N2)NC(=O)/C(=C\NC(N)=O)NC1=O (stereo not drawn)
100	25%	CC(C)(C)c1ccc(C(=O)NNC(=O)c2ccccc2Br)cc1
101	-8%	Cc1ccc(C)c(N2CCN(S(=O)(=O)c3cnc(N)nc3)CC2)c1
102	14%	CCOC(=O)c1c(C)[nH]c(C(=O)NNC(=O)c2ccc(Br)cc2)c1C
103	11%	Cc1noc(-c2ccc(NC(C)c3ccccc3)c([N+](=O)[O-])c2)n1 (stereo not drawn)
104	6%	c1nc(NC2CCCCC2)c2[nH]cnc2n1
105	-10%	Cc1ccc(S(=O)(=O)NCC2CCC(C(=O)NCc3cccs3)CC2)cc1 (stereo not drawn)
106	-11%	C#CCOCCOCCOCCNc1nc(N2CCN(C(=O)[C@H](CCC(=O)O)n3cc(CN)nn3)CC2)nc(N2CCN(C(=O)[C@H](CCCN=C(N)N)n3cc(C(N)[C@@H](C)CC)nn3)CC2)n1 (stereo partly drawn)
107	14%	CCC(=O)N1CCc2cc(CNS(=O)(=O)c3ccccc3F)ccc21
108	12%	CC1Oc2ccccc2C=C1C1/C(=C(/O)c2ccccc2)C(=O)C(=O)N1CCCN(C)C (stereo not drawn)
109	-17%	O=C(COC(=O)c1cc(S(=O)(=O)N2CCOCC2)ccc1F)NCCc1ccc(F)cc1
110	7%	O=C(c1cc([N+](=O)[O-])cc([N+](=O)[O-])c1)N(Cc1nnc(-c2ccccc2Cl)o1)C1CC1
111	8%	COc1cc(OC)c(NS(=O)(=O)c2cc(-c3cnc(C4CC4)o3)ccc2C)cc1Cl
112	-8%	CC#CCN1c2ccccc2[C@]23C[C@@H](C(=O)OC)N(C(=O)NC(C)(C)C)C2=NC(C(=O)OC)=C(C(=O)OC)[C@H]13
113	25µM*	O=[N+]([O-])/C=C\c1ccc(N2CCOCC2)cc1
114	20%	O=C(COc1ccccc1F)Nc1ccccc1C(=O)OCc1cc(=O)n2nc(C3CC3)sc2n1
115	2%	CC(=O)c1cccc(NC(=O)COC(=O)CCNS(=O)(=O)c2ccccc2)c1
116	?	CCCC(=O)N1CCN(c2ccc([N+](=O)[O-])cc2Cl)CC1
117	3%	O=C(N/N=C/c1ccccc1C(=O)O)c1ccccc1Br
118	-14%	CCOC(=O)C1=C(N)Oc2c(oc(CO)cc2=O)C1c1c(F)cccc1Cl (stereo not drawn)
119	-9%	O=c1nc(N(c2ccccc2)c2ccccc2)[nH]c(=O)[nH]1
120	-11%	CN(C)C(=O)CCC(=O)N(C)CC1CCCN(CCc2ccc(F)cc2)C1 (stereo not drawn)

A portion of the library. The share of hits here may be higher or lower than overall.
